Source: PubChem (National Center for Advancing Translational Sciences (NCATS))
RE007 growth inh: less growth of the S. pombe RE007 Vpr strain; S. pombe RE007 Vpr strain, BacTiter-Glo ATP luminescence, 24 h; control for the full effect not named in the record; Potency, µM (titrated, usually from 92.2 µM), inactives show at the top dose activity change, negative = less growth; hit rate 0.21% among 360,000; active = well fitted falling curve with a large enough effect; inconclusive = small, poorly fitted or top-dose-only effect; inactive = no such curve, though single readings can be large or run the other way;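 further: on the % scale 0 is the no-effect control and ±100 the full control effect; nearly all actives have a fitted effect of over 50% in size; the assay follows cell death caused by Vpr and the record does not say whether a fall means rescue or toxicity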
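Fission yeast strain RE007, carrying one chromosomally integrated HIV-1 vpr copy, was seeded at OD 0.01 in PMG+AL medium with 23 nL pinned compound. After 24 h at 30 °C and 99% humidity, viability was read by BacTiter-Glo luminescence.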
NS1 inh: influenza NS1 inhibition. hit rate 0.4% among 270,000. Potency, µM (top dose mostly 46.1 µM), for the others: at the top dose activity, positive = more growth. AID 2326. S. cerevisiae slowed by influenza A NS1, growth recovery by OD600; active means well fitted rising curve with a large enough effect; inconclusive means small, poorly fitted or top-dose-only effect; inactive means no such curve, though single readings can be large or run the other way; further: nearly all actives have a fitted effect of over 50% in size
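Recovery from NS1-induced slow growth read by OD600 in budding yeast switched to galactose assay medium (pH 6.0, -URA) at 1:100 dilution. Compound 23 nl per well; the matching strain lacking NS1 serves as control.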
Cruzain inh Det: inhibitors of Trypanosoma cruzi cruzain with detergent | AID 1478 | Potency, µM, without a hit: max response, negative = inhibition, actives largely listed as inhibitors | purified cruzain, Z-FR-AMC fluorescence, 0.01% Triton | hit rate 0.43% among 200,000;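 further: plate controls were neutral wells for no effect and buffer without enzyme for full effect; nearly all actives have a fitted effect of over 40% in size; top concentration of the series not given in the record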
Target sequence (P25779 123-467 limits assumed): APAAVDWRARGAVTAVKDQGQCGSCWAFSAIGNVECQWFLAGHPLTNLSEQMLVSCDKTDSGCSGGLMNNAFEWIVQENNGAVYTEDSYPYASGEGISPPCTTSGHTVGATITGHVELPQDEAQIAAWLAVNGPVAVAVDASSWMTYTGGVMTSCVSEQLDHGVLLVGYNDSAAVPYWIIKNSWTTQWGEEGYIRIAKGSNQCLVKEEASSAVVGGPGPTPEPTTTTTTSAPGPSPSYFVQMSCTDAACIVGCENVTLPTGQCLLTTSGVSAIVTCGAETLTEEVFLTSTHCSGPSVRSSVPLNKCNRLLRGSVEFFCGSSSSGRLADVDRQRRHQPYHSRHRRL
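Z-FR-AMC hydrolysis (2 uM substrate) by cruzain (1.5 nM) monitored kinetically at ex 360/em 450 nm after 15 min room-temperature compound exposure; 0.01% Triton X-100, pH 5.5, 5 mM DTT.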
SARS PLP yeast: SARS-CoV PLP inhibition in yeast. S. cerevisiae expressing SARS-CoV PLpro, growth rescue; control for the full effect not named in the record. Potency, µM (series often up to 32.9 µM), for inactives: at the top dose activity, positive = growth rescue. hit rate 0.19% among 330,000. AID 485353; active means well fitted rising curve with a large enough effect; inconclusive means small, poorly fitted or top-dose-only effect; inactive means no such curve, though single readings can be large or run the other way; further: 0% is about no effect; nearly all actives have a fitted effect of over 55% in size; growth read by luminescence after 48 h
Lassa entry inh: blocks Lassa virus binding to or entry into cells | Lassa virus pseudotype entry inhibition, cell reporter; control for the full effect not named in the record | Potency, µM (series often up to 37.9 µM), for inactives: top-dose activity change, negative = inhibition, hits mostly inhibitors | hit rate 1.2% among 300,000 | AID 540256; active means well fitted inhibition curve with a large enough effect; inconclusive means small, poorly fitted or top-dose-only effect, or effect the other way; inactive means flat fitted curve, though single readings scatter; tested in HEK293 cells; further: on the % scale 0 is the no-effect control and ±100 the full control effect; nearly all actives have a fitted effect of over 50% in size; luciferase read-out
StopGo reporter: lowers the luciferase signal of an FMDV 2A StopGo reporter. human cells with a luciferase reporter of 2A StopGo recoding; control for the full effect not named in the record. Potency, µM (highest dose often 57.9 µM), inactives show at the top dose signal change, negative = less light. hit rate 1.2% among 410,000. AID 1159524; active = well fitted falling curve with a large enough effect; inconclusive = small, poorly fitted or top-dose-only effect; inactive = no such curve, though single readings can be large or run the other way; tested in HEK293T cells; further: on the % scale 0 is the no-effect control and ±100 the full control effect; nearly all actives have a fitted effect of over 45% in size; luciferase light after 4 h
MARV entry inh: Marburg virus entry inhibition; Marburg virus pseudotyped entry inhibition, cell reporter; control for the full effect not named in the record; about a third of the inactives were read at about 46 µM; AID 540276; Potency, µM (series often up to 37.8 µM), for inactives: at the highest dose activity change, negative = inhibition, actives largely listed as inhibitors; hit rate 1.8% among 300,000; active = well fitted inhibition curve with a large enough effect; inconclusive = small, poorly fitted or top-dose-only effect, or effect the other way; inactive = flat fitted curve, though single readings scatter; tested in HEK293 cells; about a fifth of its hits are not listed in these tables; further: on the % scale 0 is the no-effect control and ±100 the full control effect; luciferase read-out
Cruzain inh noDet: inhibitors of Trypanosoma cruzi cruzain without detergent | purified cruzain, Z-FR-AMC fluorescence, no detergent | Potency, µM, inactives show max response, negative = inhibition, most hits filed as inhibitors | P25779 | hit rate 2.3% among 200,000 | AID 1476;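 further: plate controls were enzyme without inhibitor for no effect and buffer without enzyme for full effect; nearly all actives have a fitted effect of over 40% in size; top concentration of the series not given in the record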
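Detergent-free condition (0.00005% Triton X-100) in acetate buffer pH 5.5 with DTT. 1.5 nM enzyme and compound were pre-mixed 15 min, then 2 uM Z-FR-AMC substrate added; reaction progress from fluorescence change between first and third reads (60 s).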
The depositor's hits bear a star; ? = inconclusive; . = not tested or not shown; [ ] = dose if it differs, or a comment. Unless noted, the call rests on the fitted dose curve; in most records, active means well fitted curve in the direction sought with a large enough effect; inconclusive means small, poorly fitted or top-dose-only effect, or another doubt; inactive means no such curve, though single readings can be large; an effect the other way counts as inactive or inconclusive. Potency means the concentration at half of the fitted maximal effect.

SMILES | RE007 growth inh | NS1 inh | Cruzain inh Det | SARS PLP yeast | Lassa entry inh | StopGo reporter | MARV entry inh | Cruzain inh noDet
CCOc1ccccc1C(=O)N[C@H](C(=O)Nc1nc2c(s1)CCCC2)C(C)C | 0% | -1% | -7.1% | 4% | ? | 8% | ? | -27%
Cc1ccccc1S(=O)c1ccccc1C(=O)O (stereo not given) | 6% | -1% | . | -1% | 8%[46.1 µM] | -7% | 7%[46.1 µM] | .
COc1ccc(CN2CCN(C(=O)Cn3nc(C)n4cccc4c3=O)CC2)c(OC)c1OC | -4% | 6% | . | -5% | -11%[46.1 µM] | 14% | 7%[46.1 µM] | .
Cc1ccc(C(=O)NCCOC23CC4CC(CC(C4)C2)C3)cc1 | 10% | -22% | 1.3% | -12% | -52% | . | -12% | -2%
c1ccc(Cn2nnc3c(N4CCOCC4)ncnc32)cc1 | 7% | -42% | -0.2% | -6% | . | -19% | . | 11%
Cn1nc(C(=O)Nc2ccc(Cl)cc2)cc1C(=O)Nc1ccc(Cl)cc1 | -7% | 8% | . | 1% | . | 2% | . | .
CCOC(=O)c1oc2cccc(O)c2c1CN(Cc1ccccc1)C(C)=O | -8% | -1% | -5.6% | 0% | -2% | 3% | 2% | ?
Cc1oc(-c2ccc(Cl)cc2)nc1CS(=O)CC(=O)NCc1ccco1 (stereo not given) | -8% | ? | . | -4% | -6%[46.1 µM] | -1% | 6%[46.1 µM] | .
COC(=O)c1c(NC(C)=O)csc1C | -1% | 0% | . | 0% | 7% | 4% | 9% | .
CCOC(=O)C1=NN(c2cccc(C)c2)C2(S1)SC(C(C)=O)=C(C)N2c1ccccc1 (stereo not given) | -6%[3.69 µM] | 18% | -1.3% | -15% | -2% | 11% | 2% | 8%
Cc1cc(C)nc(SCC(=O)O)n1 | 1% | 1% | 4.0% | 2% | -7% | 3% | 8% | 0%
O=C(COc1ccc(C(=O)c2ccccc2)cc1)Nc1cccnc1 | 1% | -34% | . | -5% | ? | ? | ? | .
O=C1c2ccccc2C(=O)N1CC1c2ccccc2CCN1C(=O)CN1CCOCC1 (stereo not given) | -9% | . | . | 4% | 17% | -7% | 0%[46.1 µM] | .
Cc1cc(C)n(C(C)CC(=O)Nc2ccc(C)c(N(C)C)c2)n1 (stereo not given) | . | . | -1.4% | . | -10%[46.1 µM] | -17% | . | 8%
Cc1ccccc1OCc1nnc(SCc2nc3ccccc3c(=O)[nH]2)n1C | 3% | . | . | 0% | 3%[46.1 µM] | -15% | 2%[46.1 µM] | .
CCC(=O)Nc1cc(C(=O)OCc2ccc(C(=O)Oc3ccccc3)cc2)ccc1C | -6% | 3% | -2.4% | 21% | 8% | -7% | ? | 13µM*
CCOC(=O)c1c(S(=O)(=O)N2CCCC(C(=O)Nc3cc(C)ccc3OC)C2)c(C)n(C)c1C (stereo not given) | . | . | 1.6% | . | 8%[46.1 µM] | ? | . | -14%
O=C(CN1C(=O)CC(c2ccco2)Sc2ccccc21)Nc1ccc(C(F)(F)F)cc1 (stereo not given) | . | . | -5.2% | . | . | 0% | ? | -1%
Cc1cccc(NC(=O)N2CCN(C)c3ncccc32)c1C | . | . | -6.2% | . | 10%[46.1 µM] | -11% | 15%[46.1 µM] | 3%
CC(=O)c1ccc(OCCCC(=O)Nc2cccc(S(=O)(=O)N3CCCCCC3)c2)cc1 | 11% | . | . | -5% | ? | ? | ? | .
Cc1ccc(C(=O)NCC(c2ccc3c(c2)OCO3)N2CCOCC2)cc1 (stereo not given) | . | . | -1.8% | . | -4%[46.1 µM] | 8% | . | -12%
Cc1ccc(Cn2nnc3c(=O)[nH]c(C4CCN(S(=O)(=O)c5ccc(C)cc5)CC4)nc32)cc1 | 3% | ? | -6.5% | -1% | ? | -18% | ? | ?
COc1ccc(NS(=O)(=O)c2ccc(C(=O)OC(C)C(=O)N3CCOCC3)cc2)cc1 (stereo not given) | 31% | -3% | . | 2% | -25% | -8% | -1% | .
CCCCc1ccc(NC(=S)N2CCN(C(=O)OCC)CC2)cc1 | 0% | 4% | . | 0% | ? | -2% | -1%[46.1 µM] | .
O=C(NCCc1ccccc1)c1ccc2c(c1)N(Cc1ccc(Cl)cc1)C(=O)CS2 | . | . | -4.4% | . | ? | -5% | ? | ?

The closing 4 compounds of the part before are carried over, then new ones follow.
SMILES | RE007 growth inh | NS1 inh | Cruzain inh Det | SARS PLP yeast | Lassa entry inh | StopGo reporter | MARV entry inh | Cruzain inh noDet
Cc1ccc(Cn2nnc3c(=O)[nH]c(C4CCN(S(=O)(=O)c5ccc(C)cc5)CC4)nc32)cc1 | 3% | ? | -6.5% | -1% | ? | -18% | ? | ?
COc1ccc(NS(=O)(=O)c2ccc(C(=O)OC(C)C(=O)N3CCOCC3)cc2)cc1 (stereo not given) | 31% | -3% | . | 2% | -25% | -8% | -1% | .
CCCCc1ccc(NC(=S)N2CCN(C(=O)OCC)CC2)cc1 | 0% | 4% | . | 0% | ? | -2% | -1%[46.1 µM] | .
O=C(NCCc1ccccc1)c1ccc2c(c1)N(Cc1ccc(Cl)cc1)C(=O)CS2 | . | . | -4.4% | . | ? | -5% | ? | ?
CCC(=O)c1cn(CC(=O)Nc2cccc(C)c2C)c2ccccc12 | -10% | -2% | . | -3% | -3% | -18% | -20% | .
CCOC(=O)C1CCCN(CCC(=O)Nc2cccc(F)c2)C1 (stereo not given) | 3% | -4% | 2.2% | -3% | 1% | -14% | 1% | 8%
O=C(CN(C(=O)CSc1nc2ccccc2o1)c1cccc(F)c1)NC1CCCCC1 | -8% | 13% | -0.4% | -2% | 0% | . | -4% | 4%
CCC1Oc2ccccc2N(Cc2ccccc2C)C1=O (stereo not given) | -6% | 4% | -4.7% | -6% | ? | -10% | ? | -12%
COc1cc2cc3c(N)c(C(=O)Nc4sc(C)c(C)c4C#N)sc3nc2cc1OC | -16% | 16% | -4.5% | 1% | 19% | -5% | 13% | 2%
OCCC1CN(CCCc2ccccc2)CCN1Cc1ccccc1 (stereo not given) | 1% | 1% | . | 0% | 9% | -17% | -18% | .
O=C(NCCOc1ccccc1)C1CCC(=O)N(Cc2ccc(Cl)cc2)C1 (stereo not given) | -15% | 1% | . | -4% | 0% | -14% | 8% | .
O=C(NC(=S)Nc1ccccc1N1CCCC1)c1ccc(F)cc1 | -5% | 5% | . | 0% | -25% | -26% | -27% | .
COC(=O)c1c(-c2ccc(Cl)cc2)noc1N1CCN(c2ccccc2F)CC1 | . | . | 0.0% | . | -2%[46.1 µM] | -9% | -1%[46.1 µM] | -7%
CCCCC(CC)CNC(=O)CCS(=O)(=O)c1cccc2nonc12 (stereo not given) | 3% | -2% | -1.1% | -1% | 2% | 6% | -19% | -20%
CCCCn1c(N)c(N(CC)C(=O)c2cccc(F)c2)c(=O)[nH]c1=O | 7% | -3% | . | 2% | -3%[46.1 µM] | -2% | -2%[46.1 µM] | .
O=C(NC1CC1)C1CCN(c2ccc(S(=O)(=O)N3CCOCC3)cc2)CC1 | -3% | 5% | 5.8% | 2% | 40%[14.3 µM] | -15% | 22% | 5%
CCCCNC(=O)c1nn2c(C(F)(F)F)cc(-c3ccccc3)nc2c1Br | 46% | 6% | . | 0% | -23%[46.1 µM] | -25% | -22%[46.1 µM] | .
CC(=O)c1cc(CN2CCN(CCc3ccccc3)C(CCO)C2)cs1 (stereo not given) | 1% | 3% | . | 0% | -13% | -1% | -11% | .
O=C(OCc1ccc([N+](=O)[O-])cc1)c1ccc(N2CCCC2)c([N+](=O)[O-])c1 | 4% | -3% | -2.1% | -32% | 5% | -12% | 29% | ?
CC(C)n1nc(C(=O)Oc2cccc(Cl)c2Cl)c2ccccc2c1=O | -7% | 3% | -4.6% | 25% | ? | ? | 2% | 0%
C=CCn1c(SCC(=O)NNC(=S)Nc2ccccc2)nnc1-c1ccccc1 | 2% | -3% | . | 2% | 9% | -7% | -1%[46.1 µM] | .
CCOc1cc(C=NNC(=O)CCCC(=O)NN=Cc2ccc(O)c(OCC)c2)ccc1O | 26% | . | . | . | -1% | -12% | 14% | .
COc1ccccc1-c1cnn2c(NCc3ccccc3)cc(C)nc12 | -3% | -4% | . | 1% | . | 33%[activator] | . | .
CCOc1ccc(N(CC(=O)N/N=C(\C)c2cccc(NC(C)=O)c2)S(=O)(=O)c2ccccc2)cc1 | -2% | -2% | . | 1% | . | -18% | . | .
CCOC(=O)/C=C1\SCC(=O)N1CC(=O)N1CCOCC1 | 21% | . | . | 12% | 8% | -11% | 15% | .
C/C(N)=C(/C#N)C(=O)COC(=O)c1ccc(C#N)cc1 | -25% | . | . | 0% | . | 3% | -6%[46.1 µM] | .
CCOc1ccc2[nH]c(C)c(CN3CCOCC3)c(=O)c2c1 | 5% | 6% | 1.9% | 0% | 24% | . | 2% | 8%
CN(Cc1cn(-c2ccccc2)nc1-c1cc2ccccc2o1)C(=O)CCC(=O)O | -19% | . | . | -2% | -27% | 26% | ? | .
Cc1ccc(NS(=O)(=O)c2ccc(C(=O)N3CCN(c4ncccn4)CC3)cc2)cc1 | -2% | . | . | 1% | 7.9µM* | ? | ? | .
CCOc1ccc(NC(=O)CCC(=O)NNC(=O)c2ccccc2Cl)cc1 | -6% | 23% | . | 7% | . | -14% | . | .
O=C(NCC1CCCO1)C(c1cccs1)N(Cc1cccs1)C(=O)c1ccc(-c2ccccc2)[nH]1 (stereo not given) | -3% | 13µM* | -3.8% | 1% | ? | -17% | ? | 18%
COc1ccc(C(=O)Nc2nc(-c3ccccc3)c(C(C)=O)s2)c(OC)c1 | -17% | 2% | . | -1% | . | 29% | ? | .
